VCAM1 TNFa inh: inhibitors of TNFa-induced VCAM1 expression, primary screen, imaging, HUVEC, TNFa stimulus, immunofluorescence; inhibition, % at 2 µM; 0.48% of 95,000 active; AID 802, 2007; HUVEC TNFa-induced VCAM-1 immunofluorescence, high-content imaging;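 active = inhibition above the batch mean plus 3 SD, with images confirmed as a hit by eye, cut at about 37% in these data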;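 also: 0% = TNF-stimulated DMSO wells and 100% = unstimulated control wells; not every result past the cut was called active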
cytoskel mod: modifiers of F-actin cytoskeleton organization, primary screen, imaging, HUVEC, phalloidin staining, high-content imaging; HUVEC TNFa F-actin phalloidin imaging; inhibition, % at 2 µM; 0.18% of 91,000 active; AID 836, 2007;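 active = inhibition above the batch mean plus 3 SD and confirmed as a hit by visual image inspection, cut at about 30% in these data, passing the limit was not always enough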; also: strong numbers were not always called active
TNFa cytotox: cytotoxicity in TNFa-stimulated HUVEC, primary screen, cytotoxicity control for VCAM1 expression modulator project, imaging, Hoechst nuclei count. HUVEC TNFalpha-stimulated, Hoechst cell count. cell count reduction, % at 2 µM. 0.17% of 93,000 active;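 active = cell count reduction exceeding the screen mean by over 5 SD, scaled to untreated wells per plate, cut at about 78% in these data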;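 also: cells counted after 24 h of TNF alpha exposure following the 1 h pretreatment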
LYP act: LYP phosphatase activators, primary screen, biochemical, DiFMUP fluorescence, 2 µM | recombinant LYP; 0 = plate median, 100 = signal doubled | activation, % at 2 µM | 0.11% of 96,000 active;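 active = activation at 2 µM above a set limit, the mean plus 5 SD, cut at about 37% in these data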
PTPN22 inh 2: PTPN22 phosphatase inhibitors, primary screen, biochemical, DiFMUP fluorescence, 2 µM; inhibition, % at 2 µM; 0.21% of 96,000 active; recombinant LYP catalytic domain; AID 640, 2007; Tyrosine-protein phosphatase non-receptor type 22 (Homo sapiens), Q9Y2R2;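 active = inhibition at 2 µM at or above a set limit, the screen mean plus 3 SD, cut at about 24% in these data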;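 also: 0% = DMSO with enzyme and 100% = enzyme fully blocked by orthovanadate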
* marks the source's active call; other numbers are inactive results. This is a subset; rates above refer to the full screens.

The first 3 entries, ahead of the listing:
Letters: A = VCAM1 TNFa inh; B = cytoskel mod; C = TNFa cytotox; D = LYP act; E = PTPN22 inh 2
CCC(CO)NCCNC(CC)CO (stereo unspecified)
  A: -17 | B: 4 | C: -23 | D: -6 | E: 5
O=C(NCc1ccco1)c1cc2ccccc2c(=O)o1
  A: -24 | B: 3 | C: 20 | D: -2 | E: 3
N#Cc1ccccc1CSc1nc(O)cc(=O)[nH]1
  A: 10 | B: 0 | C: 4 | D: -2 | E: 2

This part in full, from the start:
Letters: A = VCAM1 TNFa inh; B = cytoskel mod; C = TNFa cytotox; D = LYP act; E = PTPN22 inh 2
CCC(CO)NCCNC(CC)CO (stereo unspecified)
  A: -17 | B: 4 | C: -23 | D: -6 | E: 5
O=C(NCc1ccco1)c1cc2ccccc2c(=O)o1
  A: -24 | B: 3 | C: 20 | D: -2 | E: 3
N#Cc1ccccc1CSc1nc(O)cc(=O)[nH]1
  A: 10 | B: 0 | C: 4 | D: -2 | E: 2
COc1ccc(Nc2nc(Nc3ccc(OC)cc3)nc(SC3=NCCS3)n2)cc1
  A: 15 | B: 46 | C: 32 | D: -7 | E: 9
COc1ccc(C)cc1-n1nnnc1SCC(=O)NC(=O)NCc1ccco1
  A: -4 | B: -13 | C: 2 | D: -17 | E: 15
COc1ccc(N=Cc2c(O)[nH]c3ccccc23)cc1
  A: 13 | B: 2 | C: 4 | D: 4 | E: -4
FC(F)(F)c1cnc2c(c1)Nc1ccccc1S2
  A: -7 | B: 1 | C: -14 | D: -4 | E: -1
O=C(Oc1cccc2c(O)cccc12)c1ccccc1
  A: 6 | B: -1 | C: -11 | D: 11 | E: -14
CC(C)(C)c1cc(NC(=O)COC(=O)c2ccc3c(=O)n4c(nc3c2)CCC4)n(-c2ccccc2)n1
  A: -26 | B: -2 | C: -16 | D: -1 | E: 1
CC(=O)Nc1ccc(Nc2ncc([N+](=O)[O-])c(Nc3ccc(NC(C)=O)cc3)n2)cc1
  A: 10 | B: 18 | C: -21 | D: -1 | E: 4
COc1ccc(C(=O)OCC(=O)NCc2ccco2)cc1OC
  A: 18 | B: 8 | C: -7 | D: 7 | E: 0
CSC1=N/C(=C\c2ccc(Br)o2)C(=O)S1
  A: 18 | B: 1 | C: -46 | D: 5 | E: -8
CC(C)c1nc2n[nH]c(N)c2c2c1CCC2
  A: -14 | B: -29 | C: 35 | D: -1 | E: 1
CCc1nc(SCC(=O)N2CCCC2)c2ccccc2n1
  A: 0 | B: 35 | C: -6 | D: 2 | E: -4
O=C(COC(=O)CCOc1ccccc1)NCc1ccco1
  A: -7 | B: -17 | C: 15 | D: -8 | E: 4

An excerpt from above, limited to TNFa cytotox and VCAM1 TNFa inh.
mol | TNFa cytotox | VCAM1 TNFa inh
O=C(Oc1cccc2c(O)cccc12)c1ccccc1 | -11 | 6
CSC1=N/C(=C\c2ccc(Br)o2)C(=O)S1 | -46 | 18
CC(=O)Nc1ccc(Nc2ncc([N+](=O)[O-])c(Nc3ccc(NC(C)=O)cc3)n2)cc1 | -21 | 10
COc1ccc(Nc2nc(Nc3ccc(OC)cc3)nc(SC3=NCCS3)n2)cc1 | 32 | 15
O=C(NCc1ccco1)c1cc2ccccc2c(=O)o1 | 20 | -24

Compound activity: PubChem, Columbia University Molecular Screening Center
